KCNQ2 pot: potentiators of rat KCNQ2 potassium channel; CHO-K1 KCNQ2, FluxOR thallium flux fluorescence; stronger effect = higher value; 310,000 compounds, 0.54% hits; AID 2239; O88943; B-score at 10 µM;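 active means fluorescence ratio B-score at least 3 SD of library B-scores, with initial fluorescence B-score within 3 SD, cut at about 5.3 in these data; same plate scores as AID 2156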;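 further: B-score of peak minus minimum over baseline fluorescence ratio after K+ and Tl+ stimulus; positive B-score means potentiation of KCNQ2 with more thallium influx and brighter signal; only the inactives scoring about 0 or higher are listed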
Target sequence (O88943 whole entry, looked up): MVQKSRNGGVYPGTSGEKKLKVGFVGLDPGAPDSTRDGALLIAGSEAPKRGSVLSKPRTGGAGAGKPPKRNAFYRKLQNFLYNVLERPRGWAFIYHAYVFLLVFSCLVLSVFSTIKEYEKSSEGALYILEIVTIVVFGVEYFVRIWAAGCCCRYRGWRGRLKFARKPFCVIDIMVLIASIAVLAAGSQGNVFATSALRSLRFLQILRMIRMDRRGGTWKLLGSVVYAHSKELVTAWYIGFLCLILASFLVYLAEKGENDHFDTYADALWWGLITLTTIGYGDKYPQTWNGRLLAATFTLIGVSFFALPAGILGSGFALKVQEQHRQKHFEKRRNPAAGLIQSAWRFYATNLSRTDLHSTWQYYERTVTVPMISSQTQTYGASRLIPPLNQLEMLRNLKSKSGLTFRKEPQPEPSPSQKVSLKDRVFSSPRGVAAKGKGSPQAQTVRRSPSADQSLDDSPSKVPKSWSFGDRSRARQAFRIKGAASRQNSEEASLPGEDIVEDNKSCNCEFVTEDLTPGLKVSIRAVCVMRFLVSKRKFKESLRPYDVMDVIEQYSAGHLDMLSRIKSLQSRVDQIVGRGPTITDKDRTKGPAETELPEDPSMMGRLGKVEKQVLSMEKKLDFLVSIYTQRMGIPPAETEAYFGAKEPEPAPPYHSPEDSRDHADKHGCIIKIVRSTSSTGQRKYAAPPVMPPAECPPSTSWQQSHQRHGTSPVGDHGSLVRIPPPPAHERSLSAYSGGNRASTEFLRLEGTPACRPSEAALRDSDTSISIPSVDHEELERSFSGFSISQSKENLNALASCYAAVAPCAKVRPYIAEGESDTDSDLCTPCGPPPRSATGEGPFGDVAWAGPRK
KCNQ2 pot baseline: further read-out of KCNQ2 pot, marked with its call; B-score; compound at 10 µM; measured here: initial fluorescence intensity artifact check;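 brightness before thallium and not channel activity; 0 = typical well and far values either way flag optical interference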
* marks the source's active call; other numbers are inactive results; nt = no result given.

SMILES	KCNQ2 pot	KCNQ2 pot baseline
CCCCC(=O)Nc1ccc(C(=O)Nc2ccc(S(=O)(=O)Nc3nccc(C)n3)cc2)cc1	1.6	-1.4
CCOC(=O)C1CCCN(C(=O)c2cc(CN3C(=O)c4ccccc4C3=O)ccc2OC)C1 (centres undefined)	0.38	0.06
CCCCn1c(N)c(N(CC)C(=O)c2cc(OC)cc(OC)c2)c(=O)[nH]c1=O	0.42	0.29
COc1ccc(CN(CC(=O)NCc2ccc(F)cc2)C(=O)CCC(=O)Nc2ccccn2)cc1	0.07	1.3
COc1ccc(S(=O)(=O)Nc2cccc(S(=O)(=O)N3CCCC3)c2)cc1OC	0.2	0.82
COc1ccc(CNC(=O)CSc2nnc(NC(=O)c3ccccc3F)s2)cc1	0.54	0.03
CC(C)NC(=O)C(c1ccc(F)cc1)N(C(=O)CCC(=O)Nc1ccccn1)c1ccccc1F (centres undefined)	1.7	1.4
O=S(=O)(NCc1cc(-c2ccccc2)no1)c1ccccc1	0.07	-1.4
CC(C)C(NC(=O)C1CCCCC1)C(=O)NCCc1ccccc1 (centres undefined)	0.02	-0.06
O=C(CN1C(=O)C2C3C=CC(C3)C2C1=O)NCc1ccc2c(c1)OCO2 (centres undefined)	0.14	1.4
O=C(COC(=O)Cc1n[nH]c(=O)c2ccccc12)NNC(=O)c1ccccc1	0.17	-0.38
COc1cccc(NC(=O)CCC(=O)Nc2ccc3nc(N4CCOCC4)cc(C)c3c2)c1	0.82	2.3
O=C(NC1CCCC1)C1CCC(=O)N1C1CCCCC1 (centres undefined)	1.2	0.04
COc1ccc(-c2cc(C(F)(F)F)nc(SCCC(=O)NCc3ccccc3)n2)cc1	0.1	0.34
N#CC1=C2C=Cc3ccccc3N2CCCC1=O	0.28	-1
Clc1ccc(-c2nc3ccccc3n2OCc2ccccc2)cc1	0.08	-0.66
O=C1/C(=C\c2cccc([N+](=O)[O-])c2O)SC(=S)N1Cc1ccccc1	3.2	-2.1
Oc1ccccc1-c1n[nH]c(=S)n1Cc1ccccc1	3.3	0.39
CC(C)CC(c1nnnn1CCc1ccccc1)N1CCC(C(N)=O)CC1 (centres undefined)	0.7	-0.67
CC(=O)c1cnc2cc(C)nn2c1C	1.3	-0.65
O=C(NCc1csc(-c2cccs2)n1)C1CCC1	0.65	-1
Cc1cc(NC(=O)/C=C/c2cccc(Cl)c2)n(-c2nc3ccccc3[nH]2)n1	0.31	-0.02
CCCOc1ccc(C(=O)N(CC(C)C)c2c(N)n(Cc3ccccc3)c(=O)[nH]c2=O)cc1	0.14	1.3
COc1c(Cl)cc(Cl)cc1CNCCNCC(C)O (centres undefined)	0.11	-1.5
CCN(CC)c1ccc(C2C(C(=O)OCCOC)=C(C)NC3=C2C(=O)CCC3)cc1 (centres undefined)	0.04	-2.1
Cc1ccc(-n2nnnc2SCc2ccccn2)cc1C	0.77	-1.1
COc1ccc(S(=O)(=O)N2CCC(C(N)=O)CC2)c2ccccc12	0.08	-1.3
COc1ccc(-c2cn3cccc(C)c3n2)cc1Br	0.02	0.58
COc1ccc(OC)c(-c2nc(CN3CCN(C(=O)c4ccco4)CC3)c(C)o2)c1	0.44	0.97
CCC(C)Sc1nc2ccccc2c(=O)[nH]1 (centres undefined)	0.25	-1.1
O=C(c1cc(F)ccc1F)C1CCCN(C(=O)CCc2cnccn2)C1 (centres undefined)	0.29	-1.8
COC/C=C/C1=CC2=CC(=O)C(C)(OC(=O)c3cccs3)C(=O)C2=CO1 (centres undefined)	0.78	-1.3
COc1ccc(S(=O)(=O)N(CC(=O)NCc2cccnc2)c2ccc(F)cc2)cc1OC	0.18	0.4
COc1cccc(NC(=O)CN(C)C(=O)CNC(=O)c2ccc3ccccc3c2)c1	0.24	-1.7
C=CCNC(=S)NNC(=O)c1ccncc1	0.21	-2.6
Cc1c(C(=O)N2CCC(C(N)=O)CC2)oc2ccc(Br)cc12	0.9	-0.22
CC1CCCCN1C(=O)c1ccccc1OC1CCN(S(C)(=O)=O)CC1 (centres undefined)	0.99	0.06
COc1ccc(NC(=O)CN(C)C(=O)c2c(-c3c(F)cccc3Cl)noc2C)cc1	0.06	0.8
O=C(Nn1cnc2ccccc2c1=O)c1ccc([N+](=O)[O-])cc1	0.27	-0.44
Cc1ccc(NC(=O)Cc2ccc3c(c2)CCCC3)cc1C	1.1	2.9

Laid out differently: results already given.
compound: O=C(c1cc(F)ccc1F)C1CCCN(C(=O)CCc2cnccn2)C1 (centres undefined)
  KCNQ2 pot: 0.29	KCNQ2 pot baseline: -1.8

compound: COC/C=C/C1=CC2=CC(=O)C(C)(OC(=O)c3cccs3)C(=O)C2=CO1 (centres undefined)
  KCNQ2 pot: 0.78	KCNQ2 pot baseline: -1.3

Next part.
SMILES	KCNQ2 pot	KCNQ2 pot baseline
Cc1cc(C)n2cc(CSc3nc4ccccc4s3)nc2n1	0.28	-0.01
Cc1cc(C(=O)N/N=C/c2cccc([N+](=O)[O-])c2)c(C)o1	0.12	0.06
N#CC(C#N)=C(N)CSc1cccc[n+]1[O-]	0.47	-0.48
COC(=O)c1ccccc1NC(=S)NC(=O)COc1ccc(C(C)C)cc1	0.02	1.2
CC1=C(C(=O)OCC2CCCO2)C(c2ccc(C)cc2)C2=C(CCCC2=O)N1 (centres undefined)	0.12	1.2
Cc1cccc(NC(=O)C2CCCN(S(=O)(=O)c3cccc4nonc34)C2)c1 (centres undefined)	0.82	-1.8
COC(=O)c1ccc(C(C(=O)NCc2ccccc2)N(Cc2cccs2)C(=O)c2cnccn2)cc1 (centres undefined)	0.07	1
Cc1ccccc1NC(=O)CCc1c(C)nn(-c2ccc(N3CCCCC3)nn2)c1C	1.9	-1.4
COc1ccc(CN2CCN(C(=O)CCC(=O)Nc3nnc(C4CCCCC4)s3)CC2)cc1F	1.9	1.1
Cc1cnc(CN(C)C(=O)C2CCC(=O)N(CCc3ccccc3)C2)[nH]1 (centres undefined)	1.4	0.49
O=C(Cn1[nH]c(=O)c2ccccc2c1=O)OCC(=O)c1ccc(F)cc1	3.3	-0.06
Cc1ccc(C)c(C(=O)CN2C(=O)NC3(CCCCCCC3)C2=O)c1	1	-0.31
O=C(c1ccco1)N1CCN(c2ccccc2F)CC1	0.73	-0.59
Cc1ccc(N2C(=O)N(CC(=O)NC(N)=O)C(=O)C2C)cc1 (centres undefined)	1.7	0.05
Cn1c(NNC(=O)c2c(F)cccc2F)cc(=O)n(C)c1=O	0.02	0.56
C=CCNC(=S)N1CCN(Cc2ccccc2)CC1	2.1	0.81
Cc1sc(NC(=O)Cc2ccc3c(c2)OCO3)nc1-c1ccc2c(c1)CCN2C(=O)c1ccc(F)cc1	0.22	-2.7
COc1ccc(S(=O)(=O)Nc2cccc(-c3ccc4nncn4n3)c2)cc1	0.07	-0.94
COCCNC(=O)C(c1ccc(C)cc1)N(CCOC)C(=O)CCC(=O)Nc1nccs1 (centres undefined)	0.36	1.7
Cc1ccc[n+](-c2nc3ccccc3nc2C(=C=[N-])C#N)c1	0.57	nt
Cc1cc(NC(=O)CSc2ncc(CO)n2Cc2ccc(F)cc2)no1	0.14	-0.5
O=C(NCc1ccccn1)c1ccc(OC2CCN(Cc3ccccc3O)CC2)cc1	0.5	1
CNC(=O)/C(C#N)=C/c1c(N2CCCCCC2)nc2ccccn2c1=O	0.54	1.9
Cc1ccc(OCC(=O)N(C)CCc2ccccn2)cc1	1.3	0.78
O=c1[nH]c(=S)[nH]c2c1C(c1cc([N+](=O)[O-])c(N3CCOCC3)cc1N1CCOCC1)O2 (centres undefined)	2.9	1.7
Fc1ccc(CNC(=S)NCc2cccc(Cl)c2)cc1	0.29	0.56
COc1cc(NC(=O)CCC2CCCC2)cc(-n2cnnn2)c1	0.26	0.01
CCSc1ccc(C(=O)Nc2ccc(Br)cn2)cc1[N+](=O)[O-]	0.35	0.7
O=C1c2ccccc2C(=O)N1OCc1ccc(Cl)cc1	0.06	-1
O=C(Nc1cccnc1)c1cc(S(=O)(=O)N2CCCCC2)c(Cl)cc1Cl	1.9	-1.8
Cc1cc(NC(=O)CSc2nc3ccccc3c(=O)n2C(C)c2ccccc2)no1 (centres undefined)	2.9	-1.1
CCOc1ccc(CCNC(=O)C2CCN(c3ccc(N4CCOCC4)nn3)CC2)cc1OCC	0.93	-1.1
COc1ccc(CC(=O)Nc2nccs2)cc1OC	0.15	-0.37
C=CCSc1nnc(NC(=O)CSc2nc3ccccc3o2)s1	0.25	-0.08
O=C(Cn1ncc2c3ccccc3n(Cc3ccccc3F)c2c1=O)NC1CC1	0.82	0.23
COc1ccc(/C=C2/SC(=O)N(CCNC(=O)C3CCCN3C(=O)c3cccs3)C2=O)cc1 (centres undefined)	0.03	-0.99
COc1ccc(N2CCn3c2nc2c3c(=O)n(CCc3ccccc3)c(=O)n2C)c(OC)c1	0.03	-2.2
Cc1c(NC(=O)c2cccc(-c3cc4ccccc4oc3=O)c2)cccc1-c1nc2ncccc2o1	0.27	-0.62
Cc1ccc(S(=O)(=O)N(C)c2ccc(C(=O)N(CC(C)C)C3CCS(=O)(=O)C3)cc2)cc1 (centres undefined)	0.29	-0.89
Cc1nn(C)c(C)c1NC(=O)CSc1nc(C2CC2)nc2c1cnn2-c1ccccc1	0.39	-0.7
O=C(Nc1ccc2c(c1)OCCO2)c1ccc2nccnc2c1	0.9	-0.53
CCOC(=O)c1c(/N=C/C2C(=O)CCCC2=O)sc2c1CCCC2	0.98	-1.1
CC(OC(=O)Cn1[nH]c(=O)c2ccccc2c1=O)C(=O)Nc1cccc(Cl)c1 (centres undefined)	1.1	2.1
COc1cccc(N2CCN(C(=O)CC(C)(C)CC3=NS(=O)(=O)c4ccccc4N3)CC2)c1	1.8	0.04
Cn1c(Cc2ccccc2)nnc1SCC(=O)N1CCOCC1	1.2	-1.4
O=[N+]([O-])c1cccc(Cl)c1NCCNS(=O)(=O)c1ccc(Cl)cc1	2.2	1.3
CCN(CC(=O)NCc1cccs1)S(=O)(=O)c1cccc(C(C)=O)c1	0.34	1.1
CCN(CCn1cccn1)C(=O)c1cc(COc2ccc(F)c(F)c2)on1	1.2	2.1
CC(C)(C)c1ccc(OC(=O)c2ccc3nsnc3c2)cc1	0.25	2.7
CCN(CC)CCNC(=O)c1ccc(NC(=O)c2ccc(F)cc2)cc1	0.02	2.3

More results
SMILES	KCNQ2 pot	KCNQ2 pot baseline
CCC(=O)Nc1ccc(S(=O)(=O)Nc2c(C)nc3nc[nH]n3c2=O)cc1	0.07	0.26
O=c1nc2c(-c3cccc(Br)c3)n[nH]n2c2ccccc12	1.9	-0.17
O=C(NCCc1nnc2ccc(NCc3ccccc3Cl)nn12)c1ccccc1	0.89	0.38
C=CCN1C(=O)C(Cc2ccc(F)cc2)S/C1=N/N=C/c1cccs1 (centres undefined)	1.2	-0.77
O=C(O)CSCC(=O)NCc1ccc(Cl)cc1Cl	0.37	0.17
Cc1ccnc(SCC(=O)c2cccc([N+](=O)[O-])c2)n1	0.06	-0.88
COc1ccnc(Oc2ccccc2)c1C(=O)N/C=N/OCc1ccccc1F	1.8	-1.1
CC(O)CSc1nc2c(c(=O)[nH]c(=O)n2C)n1Cc1ccccc1 (centres undefined)	0.31	-1.1
CCCCNC(=O)CS(=O)Cc1nc(-c2cccs2)oc1C (centres undefined)	0.23	1.7
CCC(C)N1C(=O)CN(C2CCCCCC2)C(=O)C1c1ccccc1F (centres undefined)	0.48	0.6

Compound profiles, as listed above. Order of screens: KCNQ2 pot | KCNQ2 pot baseline
CCCCNC(=O)CS(=O)Cc1nc(-c2cccs2)oc1C (centres undefined) reads 0.23 | 1.7
C=CCN1C(=O)C(Cc2ccc(F)cc2)S/C1=N/N=C/c1cccs1 (centres undefined) reads 1.2 | -0.77
CCC(C)N1C(=O)CN(C2CCCCCC2)C(=O)C1c1ccccc1F (centres undefined) reads 0.48 | 0.6
O=C(O)CSCC(=O)NCc1ccc(Cl)cc1Cl reads 0.37 | 0.17
CC(O)CSc1nc2c(c(=O)[nH]c(=O)n2C)n1Cc1ccccc1 (centres undefined) reads 0.31 | -1.1

Entries listed so far that contain bromine (4):
SMILES	KCNQ2 pot	KCNQ2 pot baseline
COc1ccc(-c2cn3cccc(C)c3n2)cc1Br	0.02	0.58
Cc1c(C(=O)N2CCC(C(N)=O)CC2)oc2ccc(Br)cc12	0.9	-0.22
CCSc1ccc(C(=O)Nc2ccc(Br)cn2)cc1[N+](=O)[O-]	0.35	0.7
O=c1nc2c(-c3cccc(Br)c3)n[nH]n2c2ccccc12	1.9	-0.17

Continuation.
SMILES	KCNQ2 pot	KCNQ2 pot baseline
COc1cc(N)c(Cl)cc1C(=O)OCC(=O)c1ccc2c(c1)NC(=O)CO2	1	1.5
COc1ccc(/C=N/N2C(=N)SCC2=O)cc1	0.01	-1.7
COc1ccc(OC)c(CNc2ccc([N+](=O)[O-])cc2C)c1	0.34	-0.72
Cc1onc(-c2ccccc2Cl)c1C(=O)N1CCN(C)CC1	0.26	1.9
CCCCN(C(C)=O)c1c(N)n(CCC)c(=O)n(CC(=O)Nc2cc(Cl)cc(Cl)c2)c1=O	0.09	0.01
Cc1ccc(CNC(=O)CN(C)S(=O)(=O)c2ccc3c(c2)n(C)c(=O)c(=O)n3C)cc1	2.4	1.9
COc1ccc(OCC(=O)NNC(=O)c2cccnc2)cc1	0.91	0.8
O=C(NN=C1C2CC3CC(C2)CC1C3)c1ccccc1O	2.1	1.4
COc1ccccc1N1CCN(C(=O)c2cc(=O)c3ccc(C)cc3o2)CC1	0.17	1.5
COc1ccccc1/C=C/C(=O)OC(C)CN1CCCCC1 (centres undefined)	0.19	-0.54
COc1ccc2c(c1OC)C(=O)N(c1ccc(C)cc1)C2	0.66	-0.39
CCC[C@@H](NS(=O)(=O)c1ccc(C)cc1)C(=O)Oc1ccc2c3c(c(=O)oc2c1)CCC3	0.03	-0.93
COc1ccc(NS(=O)(=O)c2cccc(NC(=O)c3ccc(Cl)nc3)c2)cc1	1.2	0.03

Assay outcomes as filed in PubChem BioAssay.

Not all compounds are listed; rates above refer to the full screens.
